Menin-MLL FL inh: inhibitors of human menin-MLL interaction, wild-type MLL peptide | Fluorescence polarization, fluorescein-MLL peptide displacement from menin | FP activity change, % at 61.4 µM | 290,000 tested, under 10 active | AID 1766; inconclusive = falling polarisation curve, or a change in total fluorescence; inactive = total fluorescence flat and polarisation flat or rising; no compound was filed as active; the % refers to the polarisation; negative = inhibition;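 note: % of control where 0% means no effect; inhibitors lower the polarisation; unlabelled MLL peptide was the positive control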
Sfp inh: inhibitors of Bacillus subtilis Sfp phosphopantetheinyl transferase; 310,000 compounds, 3.5% hits; Q9F4F7; Potency, µM, without a hit: max response, negative = inhibition, actives largely listed as inhibitors; Biochemical Sfp PPTase activity, qHTS; active = well fitted inhibition curve with a large enough effect; inconclusive = small, poorly fitted or top-dose-only effect, or another doubt; inactive = no such curve, though single readings can be large or run the other way;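 note: the enzyme is Sfp with the accession as filed and its product quenches rhodamine fluorescence; potency is the fitted concentration of half-maximal effect; 0% = enzyme reaction without inhibitor and -100% = no enzyme wells; top concentration of the series not given in the record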
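Step 1, compound plus 15 nM Sfp-PPTase, 15 min, room temperature. Step 2, add rhodamine-CoA (5 uM) and BHQ-2-YbbR (12.5 uM). Step 3, read 525/598 nm fluorescence at 0 and 30 min.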
ClpP mod: qHTS Assay for Activators of ClpP | ATP-dependent Clp protease proteolytic subunit (Bacillus subtilis (strain 168)), P80244 | purified B. subtilis ClpP, FRET peptide cleavage, 20 min | Potency, µM (top dose mostly 57.5 µM), for the others: top-dose activity change, negative = active | 340,000 compounds, 1.9% hits; active = well fitted falling curve with a large enough effect; inconclusive = small, poorly fitted or top-dose-only effect; inactive = no such curve, though single readings can be large or run the other way; note: potency is the fitted concentration of half-maximal effect; the source files actives as falling curves though it sought activators and does not explain the sign; nearly all actives have a fitted effect of over 65% in size; many hits overshoot -100%
Target sequence (P80244 whole entry, looked up): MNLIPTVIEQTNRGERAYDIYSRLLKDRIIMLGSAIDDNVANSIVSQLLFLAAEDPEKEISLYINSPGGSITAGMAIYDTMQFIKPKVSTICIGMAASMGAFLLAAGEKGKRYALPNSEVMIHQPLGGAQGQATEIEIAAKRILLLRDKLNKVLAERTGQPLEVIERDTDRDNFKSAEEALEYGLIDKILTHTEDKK
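ClpP 10 microg/mL final, pH 8 Tris/KCl buffer with BSA, glycerol, Tween-20; compound pinned in; FRET-FV substrate; RT 20 min; Ex320/Em430; ΔFRET vs ADEP 5.8 microM, DMSO, no enzyme.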
PINK1 expr mod: PINK1 expression modulation | 410,000 compounds, 0.2% hits | Potency, µM (titrated, usually from 76.6 µM), inactives show at the top dose activation (PINK1 increase), usual class: activators | PINK1 immunofluorescence, high-content cytometry, 24 h | AID 624263; active = well fitted activation curve with a large enough effect; inconclusive = small, poorly fitted or top-dose-only effect; inactive = flat fitted curve, though single readings scatter; cell line not stated here;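 note: potency is the fitted concentration of half-maximal effect; % of control where 0% means no effect; nearly all actives have a fitted effect of over 65% in size; a mitochondrial uncoupler was the plate control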
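Decision-based qHTS: stable cells, 24 h exposure to five compound concentrations, CCCP as control. Fixed cells stained for PINK1 plus nuclear, mitochondrial and cell markers, cytometer read.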
gsp agonist: activates gsp, the McCune-Albright syndrome mutation; gsp mutant cells, cAMP HTRF, 30 min; control for the full effect not named in the record; Potency, µM (top dose mostly 76.9 µM), inactives show top-dose activation (cAMP increase), hits mostly activators; 340,000 compounds, 0.13% hits; active = well fitted activation curve with a large enough effect; inconclusive = small, poorly fitted or top-dose-only effect, or another doubt; inactive = no such curve, though single readings can be large or run the other way; cell line not stated here;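 note: phosphodiesterase inhibitor Ro 20-1724 added with compounds to block cAMP breakdown; potency is the fitted concentration of half-maximal effect; nearly all actives have a fitted effect of over 60% in size; about a fifth of the inactives were tested at one dose only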
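Cells stably selected in G418 were plated at 2000/well, grown 16-24 hr, then given compounds in DMSO with the PDE inhibitor […] (300 uM solution added) for 30 min at 37C; cAMP was read by HTRF.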
gsp antag: gsp mutant antagonism | gsp-mutant cells, cAMP HTRF, 30 min; control for the full effect not named in the record | Potency, µM (doses to about 76.9 µM), without a hit: top-dose activity change, negative = inhibition, hits mostly inhibitors | 340,000 compounds, 0.4% hits | AID 624288; active = falling curve of any shape with a large fitted effect; inconclusive = falling curve, mostly with a smaller effect; inactive = flat or rising curve; cell line not stated here;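 note: intracellular cAMP measured with PDE inhibitor Ro 20-1724 present during compound exposure; potency is the fitted concentration of half-maximal effect; % is set by controls: 0 for no effect and ±100 for the full control effect; nearly all actives have a fitted effect of over 65% in size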
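HTRF cAMP read-out (cAMP-d2 plus anti-cAMP antibody-K in lysis buffer, 30 min RT). Before lysis, cells are exposed to compounds with […] for 30 min at 37C in DPBS containing Ca/Mg, BSA and Tween 20.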
D2 agonist: human D2 receptor agonism in beta-arrestin assay; P14416; DiscoveRx PathHunter D2 beta-arrestin, luminescence, 90 min; 100% = 57 uM dopamine signal; activation, % (concentration not given with the values); 360,000 compounds, 0.084% hits; in the data active = activation above about 40%; inconclusive = about 15% to 40%; inactive = below about 15%; note: the text of the record calls up to 30% inactive
Target sequence (P14416 whole entry, looked up): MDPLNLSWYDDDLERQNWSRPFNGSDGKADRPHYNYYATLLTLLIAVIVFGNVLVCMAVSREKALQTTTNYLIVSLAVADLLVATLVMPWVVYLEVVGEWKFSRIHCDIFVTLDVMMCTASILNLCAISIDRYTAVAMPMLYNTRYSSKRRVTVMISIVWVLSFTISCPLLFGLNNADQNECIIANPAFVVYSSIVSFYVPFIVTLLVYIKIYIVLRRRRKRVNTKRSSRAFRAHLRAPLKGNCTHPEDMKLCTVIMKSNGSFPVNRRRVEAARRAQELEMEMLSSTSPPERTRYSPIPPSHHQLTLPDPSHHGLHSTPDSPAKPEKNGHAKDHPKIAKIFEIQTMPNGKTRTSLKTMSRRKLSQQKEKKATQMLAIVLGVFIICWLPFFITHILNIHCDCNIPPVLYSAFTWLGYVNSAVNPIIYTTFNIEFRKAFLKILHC
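Agonist mode: compounds alone added to overnight-plated D2 PathHunter cells for 90 min at 37 C, with 57 uM final dopamine (EC100) defining full response. Beta-arrestin recruitment detected by chemiluminescent reagent, read after 1 h at ambient temperature.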
* hit, by the source's call; [ ] = dose if it differs, or a comment.

The opening 2 compounds (preview)
`CSc1ccc(CCNC(=O)c2cccc3c2C(=O)N(C2CCCCC2)C3)cc1` gave Sfp inh -12%, ClpP mod -4.8%, PINK1 expr mod -1.1%, gsp agonist 11%, gsp antag -13% and D2 agonist -0.2.
O=C(CNC(=O)c1cccs1)OCC(=O)c1ccc(Br)cc1 was read as Menin-MLL FL inh -0.1, Sfp inh 14%, PINK1 expr mod -1.4%, gsp agonist -27%[15.4 µM], gsp antag 0% and D2 agonist -6.2.

Results, from the first entry:
`CSc1ccc(CCNC(=O)c2cccc3c2C(=O)N(C2CCCCC2)C3)cc1` gave Sfp inh -12%, ClpP mod -4.8%, PINK1 expr mod -1.1%, gsp agonist 11%, gsp antag -13% and D2 agonist -0.2.
O=C(CNC(=O)c1cccs1)OCC(=O)c1ccc(Br)cc1 was read as Menin-MLL FL inh -0.1, Sfp inh 14%, PINK1 expr mod -1.4%, gsp agonist -27%[15.4 µM], gsp antag 0% and D2 agonist -6.2.
O=C(CNC(=O)c1cccc(Cl)c1)Nc1ccc(F)c(F)c1F was read as Menin-MLL FL inh 1.0, Sfp inh -1%, ClpP mod -0.7%, PINK1 expr mod 3.0%, gsp agonist -7%, gsp antag 2% and D2 agonist -3.4.
COc1ccc(O)c(/C=N/Nc2nc(Nc3ccccc3)nc(-n3nc(C)cc3C)n2)c1 was read as Menin-MLL FL inh 0.4, Sfp inh 3%, ClpP mod -2.0%, PINK1 expr mod -4.4%, gsp agonist 14%, gsp antag 5% and D2 agonist -17.
Screening CC(NC(=O)COC(=O)c1ccccc1Nc1ccccc1)c1ccccc1 (centres undefined) returned Menin-MLL FL inh 0.9, Sfp inh 6%, ClpP mod 82%, PINK1 expr mod inconclusive, gsp agonist -4%[15.4 µM], gsp antag -16% and D2 agonist 0.6.
`O=C(Nc1cccc(-c2nc3ccccc3[nH]2)c1)c1ccccn1` gave Menin-MLL FL inh 0.9, Sfp inh 9%, PINK1 expr mod -2.1%, gsp agonist 29%, gsp antag -6% and D2 agonist 3.9.
Screening Cc1ccc(S(=O)(=O)NCc2cn3ccsc3n2)c(C)c1 returned Menin-MLL FL inh -1.9, Sfp inh 8%, ClpP mod -1.7%, PINK1 expr mod 1.3%, gsp agonist inconclusive, gsp antag 7% and D2 agonist -3.3.
`CCC(C)NCCCCOc1ccc(C)cc1[N+](=O)[O-]` (centres undefined) gave Menin-MLL FL inh 1.7, Sfp inh inconclusive, ClpP mod -0.6%, PINK1 expr mod -0.7%[38.3 µM], gsp agonist inconclusive, gsp antag 12% and D2 agonist -4.0.
Screening Cc1cccc(OCCCC(=O)N2CCCCCC2)c1C returned Menin-MLL FL inh 5.1, Sfp inh 3%, ClpP mod 1.1%, PINK1 expr mod 5.1%, gsp agonist 6%, gsp antag -3% and D2 agonist -2.8.
`N#CC1(c2ccccc2)CCCN1C(=O)c1ccccc1Cl` (centres undefined) gave Menin-MLL FL inh 3.8, Sfp inh 1%, ClpP mod -1.5%, PINK1 expr mod 0.1%, gsp agonist -29%, gsp antag 5% and D2 agonist 0.6.
`CC(=O)n1cc([C@@H]2C=C(C(=O)NCc3ccccc3)O[C@H](OCc3ccc(CO)cc3)C2)c2ccccc21` gave Menin-MLL FL inh 6.1, Sfp inh 15%, ClpP mod -2.6%, PINK1 expr mod 1.5%, gsp antag inconclusive and D2 agonist 11.
CC[C@H](C)[C@H](NC(=O)c1ccc(Cl)cc1)C(=O)OCC(=O)c1c(N)n(C)c(=O)n(C)c1=O was read as PINK1 expr mod 3.5%, gsp agonist inconclusive, gsp antag -9% and D2 agonist 2.9.
For CC(On1c(-c2ccccc2)nc2ccc(Cl)cc21)C(=O)O (centres undefined) the results were Menin-MLL FL inh -4.9, Sfp inh 15%, PINK1 expr mod 0.5%, gsp agonist 10%, gsp antag -16% and D2 agonist 3.1.
`COCCNC(=O)c1cc2c(-c3ccccc3F)nn(C)c2s1` gave Menin-MLL FL inh 2.6, Sfp inh 5%, ClpP mod 25µM*, PINK1 expr mod -1.2%, gsp agonist -4%[15.4 µM], gsp antag -12% and D2 agonist 1.8.
`CCOC(=O)C(=O)NNc1ccc(Cl)cc1` gave Menin-MLL FL inh 0.7, Sfp inh 2%, PINK1 expr mod 7.9%, gsp agonist 5%[15.4 µM], gsp antag 6% and D2 agonist 1.4.
For Cc1cc(OC(C)C(=O)Nc2ccccc2C(=O)N2CCCC2)ccc1Cl (centres undefined) the results were Menin-MLL FL inh 2.9, Sfp inh 17%, ClpP mod 1.5%, PINK1 expr mod 1.7%, gsp agonist -101%, gsp antag -4% and D2 agonist -4.7.
Screening COc1cccc(NC(=O)[C@H](CC(C)C)NC(=O)N2CCn3c2nc2ccccc23)c1 returned Menin-MLL FL inh 3.0, Sfp inh 8%, ClpP mod -0.4%, PINK1 expr mod 5.3%, gsp agonist inconclusive, gsp antag -12% and D2 agonist 0.2.
Screening COc1ccccc1C(=O)n1nc(-c2ccc(Cl)cc2)nc1N returned Menin-MLL FL inh 2.2, Sfp inh 7%, ClpP mod 0.6%, PINK1 expr mod 8.3%, gsp agonist -13%, gsp antag -12% and D2 agonist -4.4.
Screening Cc1ccccc1CCNC(=O)Cn1ccc2cc(S(=O)(=O)N3CCCC3)ccc21 returned Menin-MLL FL inh 6.5, Sfp inh 9%, ClpP mod 0.1%, PINK1 expr mod 0.3%, gsp agonist -33%[inhibitor], gsp antag -26% and D2 agonist 4.0.
For Cc1c(N2C(=O)/C(=C\C3CC=CCC3)SC2=S)c(=O)n(-c2ccccc2)n1C (centres undefined) the results were Menin-MLL FL inh 14, Sfp inh 50µM*, ClpP mod -0.1%, PINK1 expr mod 7.0%, gsp agonist 3%[15.4 µM], gsp antag -6% and D2 agonist 1.4.
For COc1ccc(CC(=O)OC(C)CN2CCOCC2)cc1 (centres undefined) the results were Menin-MLL FL inh -6.9, Sfp inh 17%, PINK1 expr mod -0.3%, gsp agonist -5%[15.4 µM], gsp antag -3% and D2 agonist -1.9.
Screening COc1ccccc1N1CC(C(=O)Nc2nnc(SC)s2)CC1=O (centres undefined) returned Sfp inh -21%, ClpP mod -2.2%, PINK1 expr mod -1.6%, gsp agonist 10%, gsp antag 1% and D2 agonist -2.0.
`COc1ccc(C2/C(=C(/O)c3ccccc3)C(=O)C(=O)N2c2ccccn2)c(OC)c1` (centres undefined) gave Menin-MLL FL inh -1.2, Sfp inh -13%, ClpP mod 1.1%, gsp agonist -37%[inhibitor], gsp antag -1% and D2 agonist -1.3.
`O=C(CN1C(=O)/C(=C\c2ccccc2Cl)Sc2ccccc21)NCCCN1CCOCC1` gave Sfp inh -4%, ClpP mod -3.4%, PINK1 expr mod -0.8%, gsp agonist 10%, gsp antag 6% and D2 agonist -4.1.
For O=C(NCc1ccccn1)C1CCN(S(=O)(=O)c2cccs2)CC1 the results were Menin-MLL FL inh 2.8, Sfp inh -3%, ClpP mod -1.7%, PINK1 expr mod 8.0%[38.3 µM], gsp agonist 25%, gsp antag 10% and D2 agonist -3.0.
Screening CCN(c1cccc(C)c1)S(=O)(=O)c1cc2c3c(c1)CCC(=O)N3CCC2 returned PINK1 expr mod -4.2%, gsp agonist -32%[15.4 µM], gsp antag -12% and D2 agonist 1.0.
Cc1cc(Cl)ccc1OCCCC(N)=O was read as Menin-MLL FL inh -1.6, Sfp inh 6%, ClpP mod -0.5%, PINK1 expr mod 1.2%, gsp agonist -4%, gsp antag 12% and D2 agonist 2.6.
`Cc1ccc(NC(=O)CCC(=O)NNC(=O)c2ccccc2Cl)c(C)c1` gave Menin-MLL FL inh 17, Sfp inh -1%, PINK1 expr mod 1.8%, gsp agonist 14%[15.4 µM], gsp antag -23% and D2 agonist 3.5.
Cc1nc2ccccc2c2oc(C(=O)NCc3ccc4c(c3)OCO4)cc12 was read as Menin-MLL FL inh -3.5, Sfp inh inconclusive, ClpP mod -4.4%, PINK1 expr mod -0.1%, gsp agonist inconclusive, gsp antag -14% and D2 agonist 2.4.
Cc1ccc(C2CC(=O)N3CN(Cc4ccco4)CSC3=C2C#N)cc1 (centres undefined) was read as Menin-MLL FL inh 1.3, Sfp inh 2.2µM*, ClpP mod -1.4%, PINK1 expr mod -2.3%, gsp agonist -4%, gsp antag 1% and D2 agonist 0.6.
`Cc1noc(C)c1NC(=O)N(C)C[C@@H]1Oc2cc(Br)ccc2S(=O)(=O)N([C@@H](C)CO)C[C@H]1C` gave ClpP mod 2.0%, PINK1 expr mod 0.0%, gsp agonist 12% and D2 agonist -1.5.
Screening Cc1sc2nc(CSc3nnnn3-c3ccc(Cl)cc3)[nH]c(=O)c2c1C returned Menin-MLL FL inh 12, Sfp inh 79µM*, ClpP mod -7.8%, PINK1 expr mod inconclusive, gsp agonist 20%[15.4 µM], gsp antag -18% and D2 agonist -0.8.
Screening Cc1ccc(C2NC(=S)NC3=C2C(=O)CCC3)cc1 (centres undefined) returned Menin-MLL FL inh 0.5, Sfp inh 7%, PINK1 expr mod 0.7%, gsp agonist 1%[15.4 µM], gsp antag 3% and D2 agonist 1.1.
Screening O=C(COc1ccccc1C(=O)c1cnn(-c2ccccc2)c1)Nc1ccc2ccccc2c1 returned Menin-MLL FL inh 0.4, Sfp inh 13%, ClpP mod -3.5%, PINK1 expr mod -0.2%, gsp agonist 7%, gsp antag -2% and D2 agonist -0.8.
`CC(C)CCNC(=O)C(c1ccco1)N(CCCO)C(=O)Cn1nnc(-c2ccc(F)cc2)n1` (centres undefined) gave Menin-MLL FL inh -0.4, Sfp inh 19%, ClpP mod -0.5%, PINK1 expr mod 1.8%, gsp agonist 5%[15.4 µM], gsp antag -19% and D2 agonist 1.5.
For COc1ccc(NC(=O)COc2cccc3c2OC(C)(C)C3)cc1OC the results were ClpP mod 0.2%, PINK1 expr mod 1.7%, gsp agonist -1%, gsp antag inconclusive and D2 agonist 11.

Source: PubChem BioAssay (National Center for Advancing Translational Sciences (NCATS))
